# Bioassay records as filed in PubChem BioAssay.
# HPGD inh – qHTS Assay for Inhibitors of HPGD (15-Hydroxyprostaglandin Dehydrogenase) | hit rate 4.3% among 150,000 | 15-hydroxyprostaglandin dehydrogenase [NAD(+)] (Homo sapiens), P15428 | AID 894, 2007 | purified HPGD, NADH fluorescence kinetic, PGE2 substrate | Potency, µM, for the others: at the highest dose activity change, negative = inhibition, hits mostly inhibitors; active = well fitted inhibition curve with a large enough effect (not every such curve was filed as active); inconclusive = small, poorly fitted or top-dose-only effect, or another doubt; inactive = no such curve, though single readings can be large or run the other way;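 further: top concentration of the series not given in the record; plate controls included wells without enzyme; inactives centre near -10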
# Target sequence (P15428 whole entry, looked up): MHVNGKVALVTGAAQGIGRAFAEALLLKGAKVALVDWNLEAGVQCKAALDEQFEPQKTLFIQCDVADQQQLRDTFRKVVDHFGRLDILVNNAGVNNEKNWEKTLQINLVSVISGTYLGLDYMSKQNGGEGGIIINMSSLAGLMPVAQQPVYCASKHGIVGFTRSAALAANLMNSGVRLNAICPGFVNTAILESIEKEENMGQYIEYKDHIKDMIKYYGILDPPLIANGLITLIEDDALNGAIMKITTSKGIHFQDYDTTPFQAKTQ
#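 NADH formation kinetics: reaction with 30 uM PGE2 and 1 mM NAD+ (final), 20 nM enzyme, Tris-HCl pH 8 with Tween 20, after 15 min compound preincubation at room temperature. Fluorescence change, last versus first of five reads.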
# Numbers without * were called inactive; ? = inconclusive; & = joins results of further samples; ! = not confirmed by another sample. On the % scale 0 is the no-effect control and ±100 the full control effect; potency means the concentration at half of the fitted maximal effect.
HPGD inh	Molecule
-11%	Cc1ccc(CSCC(=O)N2CCN(c3ccccc3)CC2)cc1
-14%	COCCCn1c(SCC(=O)NC2CCCC2)nnc1-c1ccco1
-4%	CC1(C)NC(=O)N(CC(O)CN2C(=O)CCC2=O)C1=O (centres undefined)
13µM*	O=C(NC(=S)NC(=O)c1ccccc1F)c1ccccc1F
-12%	Cn1c(=O)[nH]c2cc3ccccc3cc21
10%	CN(C)CCOCCSc1ccc(Cl)cc1
-28%	COc1ccc(CNC(=O)COC(=O)c2n[nH]c3ccccc23)cc1OC
-7%	Cc1ccc(C(=O)OCC(=O)Nc2ccccc2)cc1NC(=O)c1ccco1
-27%	COc1ccccc1NC(=O)c1ccc(-c2ccccc2F)o1
-3%	Nn1c(SCC(=O)Nc2ccc(S(=O)(=O)N3CCCC3)cc2)nnc1C(F)(F)F
-22%	CC(/C=C/c1ccc(C)o1)=C\C(=O)O
-8%	O=C(CN1C(=O)NC2(CCCC2)C1=O)Nc1ccc(F)cc1
-13%	CCOC(=O)c1c(C)[nH]c(N=Nc2ccccc2)c1C
2%	CCn1c(=O)cc(OCC(=O)Nc2nc(C)cs2)c2ccccc21
-8%	CCc1nnc(NS(=O)(=O)c2ccc(NS(=O)(=O)c3ccc(NC(C)=O)cc3)cc2)s1
-19%	CCOC(=O)C1=C(O)C(=O)NC(c2ccccc2)=C(OCC)C1
-11%	Cn1ncc([N+](=O)[O-])c1C(=O)Nc1nc2ccccc2n1CCN1CCCCC1
?	CCC1CCCCN1C(=O)COC(=O)c1cc2ccccc2cc1O (centres undefined)
-20%	CC1(C)CC(=O)C=C(Nc2ccc(OCC(F)(F)C(F)F)cc2)C1
2%	C=CCn1c(SCc2c(Cl)cccc2Cl)nnc1-c1cccnc1
-12%	CC(C)Cn1c(C(C)NC(=O)Cc2ccccc2)nc2ccccc21 (centres undefined)
-7%	NC1=NS(=O)(=O)NC1c1ccc(Cl)cc1 (centres undefined)
-15%	Cc1ccc(-n2nc(C)cc2NC(=O)c2ccc(C)s2)cc1
-14%	CC/C(=N\OC(=O)c1ccc(OC(C)C)cc1)c1ccc(C)cc1
1%&-22%&-5%&3%	CN(C)c1nc(N(C)C)nc(N(C)C)n1

# (cont.)
HPGD inh	Molecule
-5%	N/C(=N\c1nc2ccccc2o1)NC(=O)c1ccccc1F
-1%	Cc1onc(-c2ccccc2Cl)c1C(N)=O
-13%	COCCNC(=O)Nc1ccc2nc(C)sc2c1
7%	CCOc1cc(C(=O)OCC(=O)Nc2ccc(Cl)cn2)ccc1OCC(=O)N1CCOCC1
-12%	CCN(CC)S(=O)(=O)c1ccc(N2CCN(S(=O)(=O)c3ccccc3C#N)CC2)nc1
-17%	O=C(Cn1c(=O)n(-c2ccc(F)cc2)c(=O)c2sccc21)c1ccccc1
-4%	CCC(=O)N1CCc2cc(S(=O)(=O)NC(Cc3ccccc3)C(=O)NC3CCCCC3C)ccc21 (centres undefined)
-5%	Cc1cc(C)n(S(=O)(=O)Cc2ccccc2)n1
-1%	COc1ccc(C2(CNC(=O)c3cc([N+](=O)[O-])cc([N+](=O)[O-])c3)CCCC2)cc1OC
2%	O=C(CN1C(=O)NC(Cc2ccccc2)(Cc2ccccc2)C1=O)NCC1CCCCC1
-7%	Cc1ccc(-c2noc(CCC(=O)Nc3ccccc3C)n2)cc1
-2%	COc1ccc(CCNC(=O)COc2ccc(S(=O)(=O)NC3CCCCC3)cc2Cl)cc1
?	Cn1c(C(=O)NCc2ccccc2)cc2oc3ccccc3c21
0%	Cc1ccccc1-c1nc(CN2CCC(C(=O)NCCCN3CC(C)CC(C)C3)CC2)c(C)o1 (centres undefined)
-17%	CC(=O)NCCNc1nc(-c2ccccc2C(F)(F)F)nc2ccccc12
-15%	CCOc1ccccc1NC(=O)c1cc(CC(C)C)oc1C
-19%	CCC(Sc1ncnc2c1c(-c1ccccc1)cn2-c1ccc(OC)cc1)C(=O)OC (centres undefined)
-16%	Cc1ccc(C)n1-c1sc2c(c1C#N)CCCC2
1%	COc1ccc(NC(=O)C2CCN(C(=O)c3cccs3)CC2)c(OC)c1
?	COC(=O)c1cccc(COC(=O)c2ccccc2NC(=O)c2ccco2)c1
-9%	O=C(CSc1nnc(-c2ccccc2O)n1Cc1ccccc1)NNC(=O)c1ccccc1O
?	COc1ccc(-c2nc(C#N)c(NCc3ccc(C)cc3)o2)cc1OC
-6%	Cc1nn(CC(=O)Nc2cc(S(=O)(=O)N(C)C)ccc2Cl)c(C)c1[N+](=O)[O-]
?	Clc1ccc2nc3ccccn3c2c1
?	COCCCNC(=O)C1CCN(c2ncccn2)CC1

# Filtered by structure, those above with a nitro group on carbon (3)
HPGD inh	Molecule
-11%	Cn1ncc([N+](=O)[O-])c1C(=O)Nc1nc2ccccc2n1CCN1CCCCC1
-1%	COc1ccc(C2(CNC(=O)c3cc([N+](=O)[O-])cc([N+](=O)[O-])c3)CCCC2)cc1OC
-6%	Cc1nn(CC(=O)Nc2cc(S(=O)(=O)N(C)C)ccc2Cl)c(C)c1[N+](=O)[O-]

# Returning to the listing with the three entries that preceded the break.
HPGD inh	Molecule
-6%	Cc1nn(CC(=O)Nc2cc(S(=O)(=O)N(C)C)ccc2Cl)c(C)c1[N+](=O)[O-]
?	Clc1ccc2nc3ccccn3c2c1
?	COCCCNC(=O)C1CCN(c2ncccn2)CC1
?	O=c1[nH]c2ccc(Cl)cc2c(-c2ccccc2)c1N1CCN(CCO)CC1
-4%	O=C(Cn1cnc2c(nnn2-c2ccccc2)c1=O)N1CCCc2ccccc21
-6%	COc1ccc2c(c1)OC(=O)CC2c1ccc2c(c1)OCO2 (centres undefined)
-14%	O=C(C/C=N/OCc1ccccc1F)c1cnc(-c2ccc(Cl)cc2)s1
-6%	Cc1ccc(C(=O)NNC2=Nc3cccc4cccc2c34)cc1
-11%	O=C(CNC(=O)C(c1ccccc1)c1ccccc1)N/N=C\c1ccc2c(c1)OCO2
-5%	COC(=O)Nc1c(C)n(C)n(-c2ccccc2)c1=O
14µM*	CN1CCN(C(=O)c2ccc(-n3cccc3)cc2)CC1
-16%	Cc1nnc(NC(=O)c2sc3ccccc3c2Cl)s1
-13%	O=C(O)c1cccc(CSc2nnc(-c3ccco3)o2)c1
-25%	Cc1cccc(-c2nnc3sc(-c4ccccc4C)nn23)c1
?	COC(=O)c1ccc(Nc2nc(C)cc(C)n2)cc1
-17%	C/C(=N\OC(=O)c1ccc(F)cc1)c1sc(-c2ccccc2)nc1C
-16%	Cc1cccc(SCc2noc(C(=O)NC(C)C)c2C(=O)O)c1
?	CC1Nc2nc(N(C)C)[nH]c(=O)c2NC1C (centres undefined)
-8%	O=c1ccc2cc(S(=O)(=O)N3CCN(c4ccccc4)CC3)ccc2o1
-12%	OCC1(C2=NOC(O)(C(F)(F)F)C2)CCCCC1 (centres undefined)
-22%	CCOc1ccccc1Nc1nc(-c2sc(NC(=O)c3ccccc3)nc2C)cs1
-11%	C/C(=N/NC(=O)CCCOc1ccc(Cl)cc1Cl)c1ccc(C)o1
-7%	Cc1ccccc1CNCc1cccnc1
-8%	CC(=O)N1CCN=C1SCc1ccc(Br)cc1
?	Cc1cc(Nc2ccccc2Br)n2nc(C)nc2n1
-11%	O=[N+]([O-])c1cc([N+](=O)[O-])c(N2CCOCC2)cc1NCc1ccccc1
-11%	Cc1csc(SCc2c(C(=O)O)oc3ccccc23)n1
-17%	O=C(NCCc1cccs1)C12CN(Cc3ccccc3)CC1C(c1cccc([N+](=O)[O-])c1)=NO2 (centres undefined)

# Arranged by molar mass (low to high): some entries from above.
HPGD inh	Molecule
-6%	COc1ccc2c(c1)OC(=O)CC2c1ccc2c(c1)OCO2 (centres undefined)
-16%	Cc1nnc(NC(=O)c2sc3ccccc3c2Cl)s1
-16%	Cc1cccc(SCc2noc(C(=O)NC(C)C)c2C(=O)O)c1
?	O=c1[nH]c2ccc(Cl)cc2c(-c2ccccc2)c1N1CCN(CCO)CC1
-11%	O=C(CNC(=O)C(c1ccccc1)c1ccccc1)N/N=C\c1ccc2c(c1)OCO2

# Grouped by structure, the compounds so far with bromine.
HPGD inh	Molecule
-8%	CC(=O)N1CCN=C1SCc1ccc(Br)cc1
?	Cc1cc(Nc2ccccc2Br)n2nc(C)nc2n1

# Continuation:
HPGD inh	Molecule
-6%	COc1cc(-c2noc(C3CCCN(S(=O)(=O)c4cccc(Cl)c4)C3)n2)cc(OC)c1OC (centres undefined)
?	Cc1ccc(S(=O)(=O)Nn2c(C)ccc2C)cc1
-11%	CCN1CCN(C(=O)c2ccc(COc3ccc(Cl)cc3)o2)CC1
1.1µM*	CCCCC(=O)NCc1ccc2c(c1)cc(C)n2C
3%	CC(=O)N1CCN(c2nnnn2-c2ccccc2)CC1
-19%	CCCC1CC(=O)OC1(C)C(=O)CSc1n[nH]c(-c2ccccc2)n1 (centres undefined)
-2%	Cn1cccc1Cc1nnc(SCC(=O)Nc2cccc(F)c2)n1-c1ccc(F)cc1
-7%	O=C(O)Cc1cc2c(s1)CCCCC2
-18%	N#Cc1c(NC(=O)CSc2ncn[nH]2)sc2c1CCCC2
?	Cc1ccc(-c2nn(-c3ccccc3)cc2C2CC(c3cccs3)=NN2C(=O)CCC(=O)O)cc1 (centres undefined)
-18%	CCOc1ccc(NC(=S)N(CCc2c(C)[nH]c3ccc(C)cc23)Cc2ccco2)cc1
-6%	CCOc1ccc(NC(=O)C2CCC(C)(C(=O)O)C2(C)C)cc1 (centres undefined)
-23%	Cn1c(=O)c(-c2cccs2)nc2cnc(Oc3ccccc3)nc21
?	COc1ccc2[nH]c(=O)c(CN(C)C(=O)COc3ccccc3)cc2c1
?	Clc1ccc(-c2nc3cnccn3c2NC2CCCC2)cc1
-8%	CCOC(=O)c1c(NC(=O)CSc2nnnn2CC)sc(C)c1C
-7%	Cc1ccc2c(c1)N(CCC(=O)NCc1ccc3c(c1)OCO3)C(=O)CO2
-23%	COc1ccccc1-c1nc2cc3ccccc3cc2nc1-c1ccccc1
-2%	Cc1ccc(NC(=O)CSc2nnnn2C)cc1S(=O)(=O)N(C)C
-2%	CC1CN(c2c3c(nc4ncnn24)CCCC3)CC(C)O1 (centres undefined)
-17%	CSc1nc2ccccc2n1Cc1cccc([N+](=O)[O-])c1
-14%	CCC(c1nnc(SCC(=O)Nc2cc(Cl)ccc2C#N)n1C1CCCCC1)N(C)C (centres undefined)
-25%	COC(=O)c1sccc1NC(=O)COc1ccccc1Cl
-9%	C[C@@H](Nc1nc(-c2ccccc2)nc2c1oc1ccccc12)C(=O)O
-18%	CCOC(=O)c1[nH]c(C)c(C(=O)Nc2ccc(C)c(Cl)c2)c1C

# (cont.)
HPGD inh	Molecule
?	CCCc1cc(-c2[nH]ncc2-c2ccc(C(=O)OCC)o2)c(O)cc1O
-14%	Cc1noc(C)c1C(=O)NCCC1=CCCCC1
-19%	Nc1nc2n(n1)C(c1ccco1)CC(c1ccccc1)N2 (centres undefined)
?	CCOc1ccc2[nH]c(C)c(CN3CCN(CC)CC3)c(=O)c2c1
-15%	CCOCCCNc1ncc2c(n1)CC(c1ccc(C)cc1)CC2=O (centres undefined)
-6%	Cc1cc(C)cc(OCC(=O)NNC(=O)c2ccoc2C)c1
-11%	CCOC(=O)CC1=C(C(=O)OCC)C(c2cccnc2)C(C#N)=C(N)O1 (centres undefined)
?	COC(=O)c1ccc(C(=O)OC)c(NC(=O)c2cnc3n(c2=O)CCS3)c1
-9%	CC(=O)c1ccc(O)c(CO)c1
-21%	COc1ccc(-c2cc(C(=O)NCCN3CCOCC3)c3ccccc3n2)c(OC)c1
-4%	CCCC(=O)N(CCN(C(=O)CCC)c1ccccc1)c1ccccc1
-10%	CC1CCCCC1N1CCN(C(=O)c2cccc(F)c2)CC1 (centres undefined)
-14%	Cc1ccc(NC(=O)N/C=C/c2ccc(Cl)cc2)cc1
-11%	CC[C@]1([C@H]2O[C@@H]([C@@H]3O[C@](O)(CO)[C@@H](C)C[C@H]3C)C[C@H]2C)CC[C@@H]([C@]2(C)CC[C@@]3(C[C@@H](O)[C@@H](C)[C@@H]([C@H](C)[C@H](OC)[C@H](C)C(=O)O)O3)O2)O1
-5%	O=C1CCC(C(=O)OCc2c(Cl)cccc2Cl)N1 (centres undefined)
-22%	O=C(NNC1=C(C(=O)C(F)(F)F)CCC1)c1ccc(Cl)cc1
-11%	CN1CCCC2(CCN(S(=O)(=O)c3ccccc3)CC2)C1
3.2µM*!	CN1CCCC[C@@H]1CCN1c2ccccc2Sc2ccc(S(C)=O)cc21 (some centres undefined)
-13%	CCOC(=O)/C(C#N)=C1/C=CN(Cc2ccccc2)C=N1
-4%	CN(c1ccccc1C(=O)Nc1cccc(Cl)c1Cl)S(C)(=O)=O
?	O=C(Nc1cccc(Cl)c1N1CCCC1)c1cc2ccccc2o1
?	Cc1cccc(Nc2nc3c(S(=O)(=O)c4ccccc4)nnn3c3ccccc23)c1C
-10%&-9%&-12%	CC(=O)OC1CC[C@]2(C)C(CC(OC(C)=O)[C@@]3(C)C4=CC(=O)OC(c5ccoc5)[C@]4(C)CCC23)C1(C)C (some centres undefined)
-9%	Cn1c(NC(=O)c2ccco2)c(-c2ccccc2Cl)c(=O)c2ccccc21
-3%	COC(=O)COC(=O)CC(CC(N)=O)c1ccccc1 (centres undefined)
20µM*	CCc1ccc2nc(N3C(=O)C(O)=C(C(=O)c4ccco4)C3c3cccs3)sc2c1 (centres undefined)
-14%	CC1C(c2ccccc2)C(C#N)(C#N)C2(C#N)C(=O)NC1(N)C2C (centres undefined)
-5%	Cc1ccc(-n2c(C)cc(/C=N/NC(=O)CC3(C)OCCO3)c2C)cc1

# Some of the compounds tested. The share of hits here may be higher or lower than overall.
